Bioassay records from PubChem.
AmpC nodet inh – Promiscuous and Specific Inhibitors of AmpC Beta-Lactamase (assay without detergent); hit rate 1.8% among 71,000; Potency, µM (top dose mostly 28.7 µM), for the others: at the top dose activity change, negative = inhibition; AID 585, 2007; P00811; AmpC nitrocefin hydrolysis, absorbance 480 nm, no detergent; potencies from a single point are estimates; active = falling curve, for most hits resting on a single point; inconclusive = weak or doubtful change; inactive = flat or rising curve; further: % of control where 0% means no effect; about half of the hits show no inhibition at the top dose; a quarter of the inactives give rising signals
Target sequence (P00811 whole entry, looked up): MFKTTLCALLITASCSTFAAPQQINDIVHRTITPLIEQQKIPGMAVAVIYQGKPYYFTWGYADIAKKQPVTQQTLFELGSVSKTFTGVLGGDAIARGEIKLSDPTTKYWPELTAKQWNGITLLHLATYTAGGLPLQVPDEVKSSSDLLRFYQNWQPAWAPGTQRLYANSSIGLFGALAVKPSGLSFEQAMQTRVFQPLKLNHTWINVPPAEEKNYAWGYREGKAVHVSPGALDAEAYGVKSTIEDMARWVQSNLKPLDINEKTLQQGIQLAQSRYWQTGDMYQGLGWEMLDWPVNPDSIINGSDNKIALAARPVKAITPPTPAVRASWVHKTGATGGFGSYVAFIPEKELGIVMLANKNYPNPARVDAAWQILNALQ
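AmpC in 20 mM phosphate buffer pH 7.0 was preincubated 15 min at room temperature with compounds. Nitrocefin (800 uM stock) was then added and hydrolysis followed at 480 nm every 20 s for 4 min.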
The depositor's hits bear a star; [ ] = dose if it differs, or a comment. Potency means the concentration at half of the fitted maximal effect. Some of the compounds tested; count on the stated rates, not on these rows.

Start of the data: the first 5 entries, ahead of the listing:
SMILES | AmpC nodet inh
CCC(Sc1nc(=O)cc(N)n1-c1ccccc1)C(=O)Nc1ccc(Cl)cn1 (stereo not drawn) | 61%
N#CCSc1nnc(Cc2cccc3ccccc23)n1C1CCCCC1 | 62%
Cc1cc(C)c2[nH]c(=O)c(CN(CC3CCCO3)C(=O)C3CCCO3)cc2c1 (stereo not drawn) | 28%
Cc1ccc(SCCNC(=O)C(C)C)cc1 | 12%
COc1cc(C2/C(=C(\O)c3cc(C)ccc3C)C(=O)C(=O)N2CCN(C)C)ccc1O (stereo not drawn) | 1%

All compounds of this part (from the top)
SMILES | AmpC nodet inh
CCC(Sc1nc(=O)cc(N)n1-c1ccccc1)C(=O)Nc1ccc(Cl)cn1 (stereo not drawn) | 61%
N#CCSc1nnc(Cc2cccc3ccccc23)n1C1CCCCC1 | 62%
Cc1cc(C)c2[nH]c(=O)c(CN(CC3CCCO3)C(=O)C3CCCO3)cc2c1 (stereo not drawn) | 28%
Cc1ccc(SCCNC(=O)C(C)C)cc1 | 12%
COc1cc(C2/C(=C(\O)c3cc(C)ccc3C)C(=O)C(=O)N2CCN(C)C)ccc1O (stereo not drawn) | 1%
COC(=O)c1ccc(CSc2nc3sc4c(c3c(=O)n2C)CCCC4)o1 | 36%
CC(=O)c1cc2c(cc1NC(=O)c1ccc(-n3nc(C)cc3C)cc1)OCO2 | 80%
O=C(Nc1ccc(F)cc1)N(CCCN1CCOCC1)Cc1cc2cc3c(cc2[nH]c1=O)OCO3 | 61%
O=C1CC2(CCCC2)CC(=O)N1CCCCNC[C@H]1COc2ccccc2O1 | 50%
CN1CCN(C(=O)CSc2nc(-c3cccs3)cc(-c3cccs3)c2C#N)CC1 | 130%
Clc1ccc(Cn2cc(Br)cn2)cc1Cl | -3%
CCCC(=O)Nc1ccccc1NC(=O)CN(C)S(=O)(=O)c1ccccc1 | 6%
COc1ccc(CN(CC(=O)NCC2CCCO2)C(=O)CCC(=O)Nc2cc(C)ccn2)cc1 (stereo not drawn) | 54%
O=c1c(-c2ccc(Br)cc2)coc2c(CN3CCOCC3)c(O)ccc12 | 37%
CCN1CCCC1CNC(=O)c1ccc(CS(=O)(=O)c2ccccc2C)o1 (stereo not drawn) | -10%
COCCOC(=O)c1c(C)oc2ccc(OC(=O)c3ccc4c(c3)OCO4)cc12 | 54%
Cc1cccc(-n2c(SCC(=O)Nc3nnc(C)s3)nnc2-c2ccoc2C)c1 | 69%
CCOC(=O)c1c(NC(=O)CSc2nnc(-c3ccccc3)n2CC)sc(C(C)=O)c1C | 60%
FC(F)C(F)(F)C(F)(F)C(F)(F)c1cc(-c2ccccc2)n[nH]1 | -20%
c1cncc(-c2nnc(SCc3cccc4ccccc34)o2)c1 | 103%

Look-ups from above.
Under AmpC nodet inh, Cc1cc(C)c2[nH]c(=O)c(CN(CC3CCCO3)C(=O)C3CCCO3)cc2c1 (stereo not drawn) is listed with 28%
Under AmpC nodet inh, COCCOC(=O)c1c(C)oc2ccc(OC(=O)c3ccc4c(c3)OCO4)cc12 is listed with 54%
Under AmpC nodet inh, COc1ccc(CN(CC(=O)NCC2CCCO2)C(=O)CCC(=O)Nc2cc(C)ccn2)cc1 (stereo not drawn) is listed with 54%
Under AmpC nodet inh, CCOC(=O)c1c(NC(=O)CSc2nnc(-c3ccccc3)n2CC)sc(C(C)=O)c1C is listed with 60%

The list goes on:
SMILES | AmpC nodet inh
Cc1nn2c(N3CCOCC3)c3c(nc2c1-c1ccccc1)CCCC3 | 87%
COc1ccc(OC)c(-n2c(CN3CCC(C(N)=O)CC3)nc3ccccc3c2=O)c1 | 9%
CCOC(=O)N1CCC(NCCNC(=O)c2ccccc2Cl)CC1 | -13%
COC(=O)c1ccc(C(NC(=O)OCc2ccccc2)/C(F)=C/[C@@H](C)C(=O)Nc2ccc(OC)cc2)cc1 (stereo partly drawn) | 8%
COC(=O)[C@@H](NC(=O)NC1CCN(Cc2ccccc2)CC1)C(C)C | -9%
C=CCn1c(SCc2nnc(-c3ccccc3)o2)nnc1C(O)c1ccccc1 (stereo not drawn) | 28%
CC(=O)c1c(N2CCN(Cc3ccc4c(c3)OCO4)CC2)nc(=S)n(-c2ccccc2)c1C | 103%
NCCCNC(=O)c1cc2ccccc2[nH]1 | -4%
O=C1CCCC(O)=C1C=Nc1ccc2c(c1)oc1ccccc12 | 24%
CCCCCCN(C(=O)CCCCCN1C(=O)NC(c2ccc(C(F)(F)F)cc2)C(C(=O)OCc2ccccc2)=C1C)C(C(=O)NCCCC)c1ccc(OCC(=O)OC)c(C(=O)OC)c1 (stereo not drawn) | 52%
Cc1ccc(C)c(CN2CCCNC2=O)c1 | -1%
O=C1CCCC2=C1C(c1cccs1)n1ncnc1N2 (stereo not drawn) | 14%
COc1ccc(NC(=O)CC2C(=O)N(c3cccc(OC)c3)C(=O)N2C2CCCCC2)cc1 (stereo not drawn) | 53%
O=C(CCN1C(=O)c2ccccc2S1(=O)=O)Nc1nc2c(s1)CCCC2 | 13%
CC(C)NC(=O)NC(=O)CSc1ncc(C(F)(F)F)cc1Cl | 12%
Cn1c(SCC(=O)N2c3ccccc3Sc3ccccc32)nnc1-c1ccco1 | 67%
CCOC(=O)CSc1nc2c(cnn2-c2ccc(C)cc2)c(=O)[nH]1 | -8%
CCOC(=O)C(NC(=O)C1CCCN1C(=O)OCc1ccccc1)C(=O)OCC (stereo not drawn) | 16%
CCCn1c(=O)c2c(nc(Br)n2CCC)n(C)c1=O | 10%
C=CCSc1nnc(-c2cc(Br)ccc2N)c(=O)[nH]1 | -7%

Next section; the last 2 above are carried over.
SMILES | AmpC nodet inh
CCCn1c(=O)c2c(nc(Br)n2CCC)n(C)c1=O | 10%
C=CCSc1nnc(-c2cc(Br)ccc2N)c(=O)[nH]1 | -7%
O=C(CSc1ncn[nH]1)Nc1ccc(Br)cc1F | -8%
CCOC(=O)N1CCN(C(=O)CSc2nc3c(cnn3-c3ccc(Cl)cc3)c(=O)[nH]2)CC1 | 3%
CCC(Sc1nc2sc(C(=O)OC)c(C)c2c(=O)n1N)C(=O)NCC1CCCO1 (stereo not drawn) | 50%
CCOC(=O)c1csc(NC(=O)c2ccc(S(=O)(=O)N3CCCC3)cc2)n1 | 5%
Cc1ccc(-n2c3c(cc(C(=O)NCCCN4CCOCC4)c2=O)C(=O)CC(C)(C)C3)cc1 | 93%
Cc1ccc(-n2nnc3c(=O)n(Cc4ccccc4C)cnc32)cc1 | -14%
COC(=O)[C@@]1(Cc2ccc(OC)cc2)[C@H]2c3cc(C(=O)N4CCCC4)n(Cc4ccccn4)c3C[C@H]2CN1C(=O)c1ccccc1 | 158%
O=S(=O)(Nc1ccc2c(c1)nc1n2CCOC1)c1ccccc1 | -11%
O[C@@H](c1ccccc1)C1CCN(CCc2ccccc2)CC1 | 27%
O=C(CSc1nnnn1-c1ccccc1)Nc1nsc(-c2ccccc2)n1 | -15%
Cc1noc(C)c1-c1ccc2ncnc(N(C)C)c2c1 | -5%
O=S(=O)(/C=C/c1ccccc1)N1CCN(c2ccccc2)CC1 | -2%
O=C(Cn1c(=O)oc2cc(S(=O)(=O)N3CCCC3)ccc21)Nc1ccc(C(F)(F)F)cc1 | 10µM*[single pt active]
COc1ccccc1-c1nc(-c2ccc(Br)cc2)no1 | 8%
Cc1ccc(C)n1-c1cc(S(=O)(=O)N2CCOCC2)ccc1N1CCCC1 | 76%
O=C(Cn1cc2c(n1)CCCC2)N1CCCC1 | -8%
Cc1cc(=O)oc(C)c1C(=O)N1CCc2c([nH]c3ccccc23)C1C(C)C (stereo not drawn) | 122%
C[C@H](CC(C#N)(c1ccccc1)c1ccccc1)N1CCCCC1 | 18%[5.75 µM]
COC(=O)c1ccc(S(=O)(=O)N2CCCC2)o1 | 0%
O=S(=O)(c1cc(Cl)ccc1Cl)n1nnc2ccccc21 | -4%
CCOc1ccc(-c2[nH]ncc2Oc2cccc(OC)c2)c(O)c1 | -5%
O=C(OCc1nnc(-c2ccccc2)o1)c1ccc2c(c1)OCCO2 | 9%
O=C(NCc1cn2ccsc2n1)Nc1ccc(Cl)cc1 | -8%
CC(=O)NCC12CC3CC(C1)CC(C(=O)O)(C3)C2 | -5%
CC1N(O)C2CCCCCC2N1O (stereo not drawn) | -5%
Cn1c(=O)c2c(nc(NCc3ccco3)n2C/C=C/c2ccccc2)n(C)c1=O | 61%
CCNc1ncc2nc(C)c(=O)n(C[C@H]3CCCO3)c2n1 | 1%
CSc1nnc([C@@H](NC(=O)OC(C)(C)C)C(C)C)o1 | 4%
CCOC(=O)N1CCN(Cc2cc(=O)oc3ccc4ccccc4c23)CC1 | 73%
COc1cccc(N(CC(=O)Nc2ccccc2C)S(C)(=O)=O)c1 | 9%
O=C1C=C(NC2CC2)C2(CCCCC2)O1 | -8%
CC(C)NC(=O)C1(O)c2ccccc2NC(=O)N1c1ccc(Cl)c(Cl)c1 (stereo not drawn) | 7%
COC(=O)c1ccc(C(NC(=O)OCc2ccccc2)/C(=C/[C@@H](C)C(=O)NCc2ccc(OC)c(O)c2)c2cccnc2)cc1 (stereo partly drawn) | 82%
Cc1cnc(-c2nnc(N(C)C(=O)c3ccncc3)s2)cn1 | -11%
CCN1CCN(c2ccc(NC(=O)COc3ccccc3Cl)cc2)CC1 | 31%
O=C(Nc1nonc1NC(=O)C1CCCCC1)C1CCCCC1 | -16%
O=C(CCN1C(=O)COc2ccccc21)NCCN1CCOCC1 | -3%
COCCOC(=O)C1=C(C)NC(=O)NC1C1CC=CCC1 (stereo not drawn) | 4%
CC(C)C(=O)Nc1c2c(nc3c1CCC3)CCCC2 | -5%
CN(C)C(=O)c1ccc(-c2ccc3ncnc(NCc4cccnc4)c3c2)cc1 | 10%

3 entries picked at random from those above, as already listed:
SMILES | AmpC nodet inh
COc1cccc(N(CC(=O)Nc2ccccc2C)S(C)(=O)=O)c1 | 9%
COC(=O)c1ccc(C(NC(=O)OCc2ccccc2)/C(=C/[C@@H](C)C(=O)NCc2ccc(OC)c(O)c2)c2cccnc2)cc1 (stereo partly drawn) | 82%
CCOC(=O)N1CCN(Cc2cc(=O)oc3ccc4ccccc4c23)CC1 | 73%

The results go on:
SMILES | AmpC nodet inh
COc1ccccc1-c1nc2s/c(=C\c3cccs3)c(=O)n2n1 | 80%
Cc1ccccc1OCc1nc2c3cnn(C)c3ncn2n1 | 17%
O=C(CSc1nc(-c2ccco2)cc(C(F)(F)F)n1)N1CCSCC1 | 46%
Clc1cccc(N2CCN(Cc3nc(-c4ccccc4)no3)CC2)c1 | 4µM*[single pt active]
CCOc1cccc(-c2nnc3sc(-c4cc(OC)c(OC)cc4OC)nn23)c1 | 14%
CCCOC(=O)Nc1ccc(N2CCCCC2)cc1 | -8%
CS(=O)(=O)N(CC(=O)N1CCN(c2ccccc2)CC1)c1cc(C(F)(F)F)ccc1Cl | 74%
OCl | -6%
COc1ccc2oc(=O)c(-c3nnc(NCc4ccco4)s3)cc2c1 | 21%
COc1ccc(-c2nc3cnc(OC)nc3n(C)c2=O)cc1 | 8%
OCC1(CO)COC(c2cccnc2)N1 (stereo not drawn) | 11%
CCSc1nc2c(c(=O)[nH]c(=O)n2C)n1C | 0%
CN(C)c1ccc(C(CC(=O)O)NC(=O)c2ccc(Cl)cc2)cc1 (stereo not drawn) | 8%
COc1ccc(C)cc1N(CC(=O)O)S(=O)(=O)c1ccc(C)cc1 | -5%
COc1ccc(-c2cc(C(F)(F)F)nc(S(C)(=O)=O)n2)cc1OC | 15%
CCOC(=O)N1CCN(C(=O)c2ccccc2NC(=O)COc2ccccc2C)CC1 | 86%
Cc1cc(C)cc(N(CC(=O)N2CCc3ccccc32)S(=O)(=O)c2c(C)noc2C)c1 | 4µM*[single pt active]
CCCNC(=O)C1CCN(S(=O)(=O)c2ccc3nc4c(c(C(=O)O)c3c2)CCCCC4)CC1 | 9%
CC(=O)C1C(c2ccc(Cl)cc2)NC(=O)NC1(O)C(F)(F)F (stereo not drawn) | 1%
COC(=O)c1cccc(S(=O)(=O)N(Cc2ccco2)Cc2cc3ccc(OC)cc3[nH]c2=O)c1 | 31%
CCc1cc2c(NCC(=O)O)ncnc2s1 | -2%
CP(=O)(COC(=O)c1ccccc1)COC(=O)c1ccccc1 | 33%
COc1ccccc1/C=C/CN1CC(C)OC(C)C1 (stereo not drawn) | 7%
Cc1cc2cc(CCNS(C)(=O)=O)c(=O)[nH]c2cc1C | 2%
Cc1nn(C)c(C)c1NC(=O)CSc1nnc(C)n1-c1ccccc1 | 1%
CCOc1ccccc1C(=O)N(CN1CCCC1=O)c1ccc(C)c(Cl)c1 | 112%
Cc1cc(N/C=C2\CCCCC2=O)no1 | 3%
Cc1[nH]c(=O)[nH]c(=O)c1NC(=O)c1cccs1 | 2%
COCCNC(=O)c1ccc2c(=O)n(CCOC)c(=O)[nH]c2c1 | -7%
CCOc1ccc2[nH]c(=O)c(CN(CC3CCCN3CC)C(=O)NCc3ccccc3)cc2c1 (stereo not drawn) | 28%
Cc1cc2n(n1)C(c1ccc3c(c1)OCO3)Nc1ccccc1-2 (stereo not drawn) | 32%
Cc1nnc(SCC(=O)Nc2nccs2)[nH]c1=O | -11%
Cc1ccc2nc(N3CCN(Cc4nnnn4Cc4ccccc4)CC3)c(C#N)cc2c1 | 44%
O=C(O)c1ccc(S(=O)(=O)N(Cl)Cl)cc1 | -8%
CC1(C)Cc2c(sc3nc(NCCN4CCOCC4)n4ncnc4c23)CO1 | 48%
Cc1cc(C)n(CCOc2nonc2N)n1 | -7%
COCc1cc(C)nc(N2CCN(c3ccccc3)CC2)c1C#N | 10%
O=C(O)CCN1C(=O)CC2(CCCCC2)C1=O | -8%
COc1ccc(C(C)NC(=O)C2C(=O)NC3(C)CC2c2ccccc2O3)cc1 (stereo not drawn) | -1%
